Screening results deposited in PubChem by several laboratories.
Autofluor counter – flagged as autofluorescent in microsphere protease counterscreen | compound autofluorescence counterscreen, microsphere flow cytometry; hits give high values | fluorescence intensity (test concentration not listed) | 360,000 tested, 3.1% active;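 active = at least 3 SD above the mean of all compounds, about 16000 in these data; inconclusive = too few beads counted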;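 also: 100 nL of 1 mM stock went into each well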
Sa RN4220 lethal – kills Staphylococcus aureus RN4220 | inhibition, % (no concentration beside the values) | 330,000 tested, 0.33% active | S. aureus RN4220 growth, OD600, 16 h;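 active = z-score of -3 or lower and OD600 up to 0.18 on both plates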;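 also: plate controls were untreated cells for no effect and reference antibiotic for full effect; stock transfer was 100 nL into about 80 µL; one replicate is shown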
BJeLR lethal – kills HRASV12-expressing BJeLR cells. BJeLR (HRASV12) viability, CellTiter-Glo ATP luminescence, 48 h; reference of the scale not given here. inhibition, % (no concentration beside the values). 300,000 tested, 0.17% active. AID 1554;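 active = replicate mean above 50%; inconclusive = above 50% but judged a plate artefact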;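 also: 50 nL library stock added to about 25 µL; numbers are from one replicate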
PrP UTR inh – inhibition of PrP 5' UTR reporter expression | cell-based PrP 5' UTR mRNA reporter, plate reader | inhibition, % (test concentration not listed) | 340,000 tested, 0.35% active | AID 488862;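 active = every replicate at 50% or more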;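 also: 0 = median of the neutral control wells; tested in H4 reporter cells; numbers are from one replicate; inactives centre near -14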
Mtb hypoxia rep – reduces hypoxia-regulated biosensor signal in M. tuberculosis; M. tuberculosis hypoxia-regulated fluorescent reporter, fluorescence; fluorescence inhibition, % (no concentration beside the values); 300,000 tested, 0.1% active; AID 1159583;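 active = 35 to 45% if threefold the growth effect, above 45% if 1.5-fold the growth effect; inactive = the rest, general growth blockers included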;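 also: wells of about 50 µL received 100 nL stock; 0% = vehicle wells and 100% = reference inhibitor wells; whole bacteria with a GFP reporter of the hypoxia response; strong numbers were not always called active; many hits fall short of the cut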
ugtP null kill – compounds lethal to S. aureus RN4220 ugtP deletion mutant; 330,000 tested, 0.54% active; OD600 growth, 16 h; some inactives read as strong as hits; growth inhibition, % (test concentration not listed); AID 1259309;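 active = z-score under -3 and OD600 up to 0.15 on both plates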;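 also: plate controls were untreated wells for no effect and antibiotic for full effect; wells of about 80 µL received 100 nL stock; the first replicate is given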
Mtb hypoxia rep growth – recorded beside Mtb hypoxia rep, whose call it bears; growth inhibition, %; measured here: M. tuberculosis growth (absorbance);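 0% = vehicle and 100% = reference antibiotic; read after six days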
Starred values were filed as active, the others as inactive; ? = inconclusive; nt = not tested or not shown. An unsorted share of the library (roughly 3.9% active in at least one column).

canonical_smiles	Sa RN4220 lethal	Mtb hypoxia rep growth	BJeLR lethal	ugtP null kill	Autofluor counter	PrP UTR inh	Mtb hypoxia rep
Cc1cc(C)c(C(N)=O)c(NCCc2ccccc2)n1	3.4	-1	1	3	11286	-23	3
COc1ccc(CNC(=O)COc2cccnc2[N+](=O)[O-])cc1OC	2.2	3	-3	9	2955	-5	0
COc1ccc(N(CC(=O)NC2CCCCCC2)S(=O)(=O)c2ccc(C)cc2)cc1OC	2.2	0	5	2	6114	-12	10
O=C(NN=Cc1ccc(Cl)cc1Cl)C(=O)NC1CC1	4.2	7	nt	7	nt	nt	8
CCN(CC(=O)NC1CC1)S(=O)(=O)c1ccc(OC)cc1	1.8	8	-5	4	5153	-13	7
CCC(C)c1ccc(N(CC(=O)NC(C)(C)C)C(=O)CNC(=O)c2cccs2)cc1 (stereo unspecified)	0.7	-24	0	3	5427	-32	-10
COc1ccc(S(=O)(=O)N(CC(=O)N2CCOCC2)Cc2ccccc2)cc1C	1.1	-12	10	-7	10820	-11	-8
CCCNC(=O)CCc1c(C)nc2c(c(C)nn2-c2ccc(C)cc2)c1C	0.0	5	5	1	3865	-49	-7
Cn1cccc1C(=O)NCc1ccc(Cl)cc1	1.8	2	-3	-6	6099	-20	15
CCCS(=O)(=O)N1CCN(Cc2ccccc2[N+](=O)[O-])CC1	5.3	1	-5	3	2240	-32	6
Cc1ccc(-n2c(SCC(=O)NCc3ccco3)nc3c(sc4ccccc43)c2=O)cc1	-5.3	2	-5	5	10573	-58	2
CCn1c(SCc2nc(-c3ccc(Cl)cc3)no2)nnc1-c1ccco1	21	nt	2	-4	3218	-33	nt
O=C(CSc1nnc(COc2cccc3ccccc23)o1)N1c2ccccc2CCc2ccccc21	-11	14	1	-1	3257	-13	10
O=C(NCc1cccs1)C1CCC(=O)N(Cc2cccc(C(F)(F)F)c2)C1 (stereo unspecified)	2.9	-2	0	14	?	-28	3
O=C(O)c1ccc(CSc2nnnn2-c2ccc(F)cc2)cc1	0.9	-2	2	-4	2709	-21	11
COc1cccc(NC(=O)CN(C)C(=O)/C=C/c2cn(-c3ccccc3)nc2-c2ccc(C)cc2)c1	2.0	-3	12	-2	nt	-17	-4
N=c1c(S(=O)(=O)c2ccc(Br)cc2)cc2c(=O)n3ccccc3nc2n1C1CCCCC1	nt	nt	-8	nt	5644	2	nt
COc1ccc(-n2c(=S)[nH]c3cc(C(=O)NCCCN4CCOCC4)ccc3c2=O)c(OC)c1	0.5	14	5	1	4523	-12	-5
COc1ccc(CNCC(O)(c2ccccc2)c2ccc(Cl)cc2)cc1 (stereo unspecified)	-1.8	-8	9	-19	9814	-15	-9
CN(C(=O)CSc1nnc(-c2cccs2)n1C1CC1)C1CCS(=O)(=O)C1 (stereo unspecified)	2.0	1	nt	2	5772	-10	2
COc1ccc(C(=O)OCC(=O)Nc2c(C)n(C)n(-c3ccccc3)c2=O)cc1OC	1.4	1	nt	3	7886	-4	3
COc1ccc(C2CC(c3cccc(Cl)c3)n3nc(N)nc3N2)cc1 (stereo unspecified)	2.5	nt	-7	0	5817	5	nt
COC(=O)c1ccc(-c2noc(CN(Cc3ccncc3)CC3CCCO3)n2)cc1 (stereo unspecified)	15	2	-10	0	3766	-20	-1
COCC1CCN(c2nc3nonc3nc2N2CCSCC2)C1 (stereo unspecified)	-0.6	17	4	0	2137	-11	0
O=C(COC(=O)c1ccc(S(=O)(=O)C(F)F)cc1)Nc1cccnc1Cl	1.5	-13	7	1	7712	-54	5
CCC(C)c1ccc(NC(=O)N2CCOCC2)cc1 (stereo unspecified)	4.2	2	-9	11	3907	-31	13
Cc1cc(NN=Cc2ccncc2)c([N+](=O)[O-])cc1[N+](=O)[O-]	3.9	4	nt	-8	nt	nt	7
Cc1cc(NC(=O)c2cccc3ccccc23)cc(C)c1OCC(=O)N1CCOCC1	-14	15	-1	-8	2651	-26	19
COCCOC(=O)c1c(C)n(C)c2ccc(OC(=O)c3ccccc3F)cc12	3.7	8	-9	6	3227	-3	-9
COC(=O)c1cc(S(=O)(=O)N2CCCCC2C)c[nH]1 (stereo unspecified)	2.2	4	-7	6	4559	11	14

Filtered by structure: those above containing an aryl thioether with sulfur outside any ring.
canonical_smiles	Sa RN4220 lethal	Mtb hypoxia rep growth	BJeLR lethal	ugtP null kill	Autofluor counter	PrP UTR inh	Mtb hypoxia rep
Cc1ccc(-n2c(SCC(=O)NCc3ccco3)nc3c(sc4ccccc43)c2=O)cc1	-5.3	2	-5	5	10573	-58	2
CCn1c(SCc2nc(-c3ccc(Cl)cc3)no2)nnc1-c1ccco1	21	nt	2	-4	3218	-33	nt
O=C(CSc1nnc(COc2cccc3ccccc23)o1)N1c2ccccc2CCc2ccccc21	-11	14	1	-1	3257	-13	10
O=C(O)c1ccc(CSc2nnnn2-c2ccc(F)cc2)cc1	0.9	-2	2	-4	2709	-21	11
CN(C(=O)CSc1nnc(-c2cccs2)n1C1CC1)C1CCS(=O)(=O)C1 (stereo unspecified)	2.0	1	nt	2	5772	-10	2

2 successive compounds already listed, for reference:
canonical_smiles	Sa RN4220 lethal	Mtb hypoxia rep growth	BJeLR lethal	ugtP null kill	Autofluor counter	PrP UTR inh	Mtb hypoxia rep
COCCOC(=O)c1c(C)n(C)c2ccc(OC(=O)c3ccccc3F)cc12	3.7	8	-9	6	3227	-3	-9
COC(=O)c1cc(S(=O)(=O)N2CCCCC2C)c[nH]1 (stereo unspecified)	2.2	4	-7	6	4559	11	14

More compounds follow:
canonical_smiles	Sa RN4220 lethal	Mtb hypoxia rep growth	BJeLR lethal	ugtP null kill	Autofluor counter	PrP UTR inh	Mtb hypoxia rep
CCCCOc1ccc(C=NNc2cc(N3CCOCC3)nc(C)n2)cc1	1.3	-1	nt	-7	nt	nt	-4
Cc1nnc2sc(COc3ccccc3)nn2c1=O	-1.9	1	-15	-3	3674	-2	-3
CCN(CCO)Cc1cc(=O)oc2c(C)c(C)ccc12	1.4	-2	-9	-3	7223	-31	-3
CN(C)S(=O)(=O)c1cccc(NC(=O)C(c2ccccc2)c2ccccc2)c1	-3.9	10	1	6	5385	-13	8
CC(C)Cn1nc(C(=O)NCc2ccccc2CN2CCCC2)c2ccccc2c1=O	-2.3	-6	nt	-1	?	5	5
Cc1ccccc1NC(=O)C1CCCN1/C=C/C(=O)C(F)(F)F (stereo unspecified)	3.9	7	-4	3	2019	-20	3
O=C(Oc1oc(-c2ccco2)nc1C=Nc1ccc(Cl)cc1)c1ccco1	-3.5	nt	1	2	4845	-39	nt
NC(=O)c1ccccc1NC(=O)CC1(CC(=O)O)CCCC1	4.1	7	-1	10	5292	1	8
CN(C)c1nc(NN=Cc2ccccc2O)nc(Nc2ccc(F)cc2)n1	100*	-1	nt	100*	nt	nt	-6
CC(=O)Nc1cccc(NC(=S)Nc2ccc(F)cc2F)c1	4.2	11	4	7	2482	-4	10
COc1ccc(NC(=O)CN2C(=O)NC(C)(c3ccccc3)C2=O)c(OC)c1 (stereo unspecified)	3.3	2	-2	14	5050	-17	-1
COC(=O)c1ccc(-n2c(C)cc(/C=N/n3cnnc3)c2C)cc1	nt	nt	-5	nt	3597	-11	nt
O=C1CSC2=NCN(c3ccc4c(c3)OCO4)CN12	-1.5	5	-6	13	9550	-29	3
CCOC(=O)c1sc(N)c(C(=O)Nc2ccccc2)c1C	3.3	15	-3	4	4205	-40	6
CCOC(=O)C1=C(N)OC2=C(C(=O)CCC2)[C@]12C(=O)N(CC(N)=O)c1ccccc12	3.2	-1	-1	9	5380	-5	-3
Cc1cccc(OCC(=O)NC(=S)Nc2ccccc2N2CCOCC2)c1C	3.9	5	6	1	6188	-14	1
O=[N+]([O-])c1ccc(-c2nc3ccc([N+](=O)[O-])cc3[nH]2)cc1	-9.9	7	1	-18	2363	-78	-5
Nn1c(SCC(=O)NC2CCCCC2)nnc1-c1ccco1	6.6	3	nt	8	7909	-5	5
CCOC(=O)C1=C(CN2c3ccccc3CC2C)NC(=O)NC1c1ccccc1 (stereo unspecified)	5.5	nt	-6	-17	2062	-16	nt
CCc1ccc(NC(=O)CC2C(=O)Nc3c2c(=O)n(C)c(=O)n3C)cc1 (stereo unspecified)	-1.6	18	-4	0	22007*	-4	6
O=C(CCN1CCN(c2ccccc2)CC1)NN=Cc1ccccc1O	16	14	nt	4	nt	nt	14
COc1ccc(NC(=O)NC2CCCCCCC2)c(OC)c1	3.8	16	nt	2	?	-11	-5
CCN(CC)S(=O)(=O)c1ccc2c(c1)N(CC(=O)Nc1ccc(NC(C)=O)cc1)C(=O)CO2	-0.8	4	5	10	3808	-5	-12
COc1cc(S(=O)(=O)N2CCOCC2)ccc1F	0.5	nt	-5	3	2308	-7	nt
COC(=O)c1cn(NC(=O)c2ccccc2[N+](=O)[O-])c(=O)c2ccccc12	-3.6	3	nt	7	3162	56*	12
NC(=O)CCCn1c(C(=O)c2ccc(Cl)cc2)c2ccc([N+](=O)[O-])cc2[n+]1[O-]	50	23*	2	63	2910	-5	40*
COc1cc(OC)cc(C(=O)N/N=C\c2ccoc2)c1	nt	nt	8	nt	4511	-2	nt

Shown field by field: entries from further up.
SMILES: O=[N+]([O-])c1ccc(-c2nc3ccc([N+](=O)[O-])cc3[nH]2)cc1
  Sa RN4220 lethal: -9.9
  Mtb hypoxia rep growth: 7
  BJeLR lethal: 1
  ugtP null kill: -18
  Autofluor counter: 2363
  PrP UTR inh: -78
  Mtb hypoxia rep: -5
SMILES: Nn1c(SCC(=O)NC2CCCCC2)nnc1-c1ccco1
  Sa RN4220 lethal: 6.6
  Mtb hypoxia rep growth: 3
  BJeLR lethal: nt
  ugtP null kill: 8
  Autofluor counter: 7909
  PrP UTR inh: -5
  Mtb hypoxia rep: 5
SMILES: CCOC(=O)C1=C(CN2c3ccccc3CC2C)NC(=O)NC1c1ccccc1 (stereo unspecified)
  Sa RN4220 lethal: 5.5
  Mtb hypoxia rep growth: nt
  BJeLR lethal: -6
  ugtP null kill: -17
  Autofluor counter: 2062
  PrP UTR inh: -16
  Mtb hypoxia rep: nt
SMILES: CCc1ccc(NC(=O)CC2C(=O)Nc3c2c(=O)n(C)c(=O)n3C)cc1 (stereo unspecified)
  Sa RN4220 lethal: -1.6
  Mtb hypoxia rep growth: 18
  BJeLR lethal: -4
  ugtP null kill: 0
  Autofluor counter: 22007*
  PrP UTR inh: -4
  Mtb hypoxia rep: 6
